Screening results as filed in PubChem.
TAR Tat displ = HIV-1 TAR-Tat binding disruption; HIV-1 TAR RNA, Tat peptide displacement FRET; stronger effect = higher value; z-score (concentration not given with the values); actives 0.6% (n = 100,000);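 note: score is relative to mean and SD of negative controls; some compounds called inactive have numbers as strong as hits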
CDC25B CDK2 inh = human CDC25B-CDK2/CyclinA binding inhibition; z-score (concentration not given with the values); P30305+P24941; actives 0.72% (n = 94,000); AID 1259370; HTRF CDC25B-CDK2/CyclinA binding, anti-His/anti-Flag; stronger effect = higher value;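 note: score is relative to mean and SD of negative controls; strong numbers were not always called active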
* marks the source's active call; other numbers are inactive results; . = no result given.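 Rule for the calls: active = z-score from 3 up in half or more of its runs; inactive = the rest.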

SMILES	TAR Tat displ	CDC25B CDK2 inh
CCCN1C(=O)c2cc(C(=O)NC(C)C)nn2CC1(C)C(=O)NC1CCCC1 (stereo not drawn)	0.27	.
COc1ccc(OC)c(NC(=O)CSc2nc3c(c(=O)n2C)SCC3)c1	1.6	-2.6
CC1=NC2c3c(oc(C(=O)NCc4ccc(C)o4)c3C)CCC2S1 (stereo not drawn)	0.89	.
CCC(C(=O)NC(C)CCc1ccco1)n1nc(C)n2c(cc3occc32)c1=O (stereo not drawn)	-0.12	0.75
Cc1cc(S(=O)(=O)[C@H]2CS(=O)(=O)C[C@@H]2N2CCN(c3ncccn3)CC2)ccc1F	0.35	-1.5
O=C(CN1c2ccc(Br)cc2-c2ccccc2S1(=O)=O)Nc1ccc2c(c1)OCO2	1.6	-3.4
CC(=O)OCc1cc(=O)n2nc(C)sc2n1	0.91	.
CN1C2C=C(N(CCc3ccccc3)C(=O)c3ccccc3)CC1CC2 (stereo not drawn)	1.1	0.29
COc1ccc(NS(=O)(=O)c2ccc3c(c2)n(C)c(=O)n3C)cc1Cl	0.67	-0.57
Cn1c(=O)c2c(ncn2CC(COC(=O)c2ccco2)OC(=O)c2ccco2)n(C)c1=O (stereo not drawn)	.	-1.4
Cn1c(Cc2nn(C)c(=O)c3ccccc23)nnc1SCC(=O)Nc1ccc(Cl)cc1Cl	.	-1.9
O=C(CCS(=O)(=O)c1cc2c3c(c1)CCN3C(=O)CC2)NC1CCCCC1	-0.09	.
O=C(Nc1ccc2c(c1)OCCO2)Nc1nnc(N2CCCC2)s1	-0.36	-1.1
O=C(ON(Cc1c(F)cccc1Cl)Cc1c(F)cccc1Cl)c1ccc(Cl)cc1	.	-0.26
CN(C(=O)c1cc2c(s1)-c1ccccc1SC2)c1ccc(F)cc1	.	-1.2
CC1Sc2ccc(S(=O)(=O)NC3CCCCC3C)cc2NC1=O (stereo not drawn)	1.9	.
O=C(NCc1ccccc1)N1CCC2(CC1)Nc1cc(F)ccc1-n1cccc12	0.83	.
O=C(Nc1ccccc1)C1COc2ccccc2O1 (stereo not drawn)	-0.58	-3.2
Cc1c(C(=O)NCc2cccs2)sc2nc3n(c(=O)c12)CCCC3	3.5	.
O=C(CSc1nnc2scc(-c3ccccc3)n12)c1ccc2c(c1)OCCO2	.	-0.8
CCN1CCN(c2c(C(=O)c3ccc(C)c(C)c3)cnc3cc4c(cc23)OCO4)CC1	1.3	3.2
O=C(Cn1nc(Cc2ccncc2)c2ccccc2c1=O)NCc1ccccn1	0.87	1.4
CCOCCn1c(CCCO)nc2ccccc21	.	-0.15
Cn1c(=O)n(C)c2cc(S(=O)(=O)N(Cc3ccco3)C(=O)c3ccncc3)ccc21	1.6	-0.19
CCN(CCNS(=O)(=O)c1ccc(-c2ccc(=O)[nH]n2)s1)Cc1ccccc1	-0.59	.
CC1(C(=O)NC2CCCCC2)Cn2c(cc3sccc32)C(=O)N1Cc1ccco1 (stereo not drawn)	3.2	-0.17
CC(C)c1nn2c(=O)cc(CSc3nnc(-c4ccco4)n3C)nc2s1	-0.65	.
Cc1noc(/C=C/N(C)C)c1S(=O)(=O)Nc1cccc(Cl)c1	-0.2	.
Cc1cc(C)c2c(C)nn(-c3ccc(C)c(C)c3)c2n1	-0.57	-2
O=C(NCCN1CCCCC1)c1cnc(N2CCCC2)nc1	1.3	.
Cc1ccc(C)n1-c1nnc(N2CCC(C(=O)NCC3CCCO3)CC2)s1 (stereo not drawn)	-0.81	-0.26
COc1cc2c(cc1OC)CN(S(=O)(=O)c1cc(N3C(=O)CCS3(=O)=O)ccc1OC)CC2	0.43	-2.5
CCCn1cnc2cc(NCc3ccc(C)cc3)ccc21	0.51	13*
CNC(=O)C1CCC(Cn2c(=O)c3sccc3n(CC(=O)N3CCCC(C)C3)c2=O)CC1 (stereo not drawn)	0.6	.
Cn1c(C(=O)NCC2CCCO2)c(N2CCCC2=O)c2cc(F)ccc21 (stereo not drawn)	0.56	.
CCOC(=O)C1=C(c2ccccc2)N=C2SCC(=O)N2C1c1ccc(OC)cc1 (stereo not drawn)	1.6	1.1
Cc1ccc(N(C)S(=O)(=O)c2cc3c(cc2C)NC(=O)CO3)cc1	2.3	.
CCCCc1nn2c(=O)cc(COC(=O)COc3ccc(F)cc3)nc2s1	-0.35	.
C=CCSc1nc2c(c(=O)[nH]1)C(c1ccc(O)c(O)c1)CC(=O)N2 (stereo not drawn)	19*	16*
C(=C\c1nc(-c2ccncc2)no1)/c1ccccc1	0.25	-1.6

Six of the compounds above, in CSV form:
canonical_smiles,TAR Tat displ,CDC25B CDK2 inh
Cn1c(=O)n(C)c2cc(S(=O)(=O)N(Cc3ccco3)C(=O)c3ccncc3)ccc21,1.6,-0.19
CCN(CCNS(=O)(=O)c1ccc(-c2ccc(=O)[nH]n2)s1)Cc1ccccc1,-0.59,.
CC1(C(=O)NC2CCCCC2)Cn2c(cc3sccc32)C(=O)N1Cc1ccco1 (stereo not drawn),3.2,-0.17
CC(C)c1nn2c(=O)cc(CSc3nnc(-c4ccco4)n3C)nc2s1,-0.65,.
Cc1noc(/C=C/N(C)C)c1S(=O)(=O)Nc1cccc(Cl)c1,-0.2,.
Cc1cc(C)c2c(C)nn(-c3ccc(C)c(C)c3)c2n1,-0.57,-2

(cont.)
SMILES	TAR Tat displ	CDC25B CDK2 inh
CCOc1ccc(-c2ccc(NS(=O)(=O)c3ccccc3)cc2)nn1	0.87	.
COc1ccc(OCCSc2nc(-c3ccc(C)cc3)c(C#N)c(=O)[nH]2)cc1	1.6	0.33
O=C(NCCCN1CCCC1)C1CCN(c2nc3ccccc3n3cccc23)CC1	0.3	.
Cc1cc(NC(=O)CSCC(=O)O)no1	.	-1.3
C=C(C)Cn1cnc2c(oc3nc4c(cc32)COC(C)(C)C4)c1=O	1.1	.
Cc1ccc([N+](=O)[O-])cc1S(N)(=O)=O	.	-1.7
CCCn1nc(SC)n2c(=O)c3c(nc12)-c1ccccc1CC3(C)C	-1.6	-0.42
O=C(CSc1nnc2ccc3ccccc3n12)Nc1cccc(C(F)(F)F)c1	.	0.13
CCCc1nc2sc3c(NCCN(C)C)ncnc3c2c2c1CCCC2	0.25	1.5
CC1=C(C(=O)OCc2ccccc2)C(c2ccc(C)s2)C2=C(CCCC2=O)N1 (stereo not drawn)	1.9	-0.28
O=c1[nH]c2ccccc2c(=O)n1Cc1nc(-c2ccccc2)no1	1.4	-2
O=C1CC(c2ccc3c(c2)OCO3)Sc2nc(-c3ccccc3)nn21 (stereo not drawn)	.	-0.39
CC(=O)c1nnc2cc(C)nn2c1C	.	-2.3
O=C(CSc1ncc(S(=O)(=O)c2ccccc2)c(=O)[nH]1)Nc1ccccc1Cl	0.78	-0.99
CCCCNc1nc(Oc2ccc(=O)n(-c3ccccc3)n2)nc(N(CC)CC)n1	-0.14	2.1
O=c1oc2cc(S(=O)(=O)N3CCCCC3)ccc2c2ccc(S(=O)(=O)N3CCCCC3)cc12	-0.77	0.38
Cc1nc(CNC(=O)C2CCN(C(=O)NCCC(C)C)CC2)cs1	1.6	.
COCCCNC(=O)c1cc2sc(Cl)cc2n1C	.	-1.4
COc1ccc(C(=O)CSc2ncnc3sc(C)c(C)c23)cc1	2.8	-0.8
CCn1c(=O)n(Cc2ccco2)c(=O)c2cc3c(nc21)CC(C)(C)OC3	0.42	-1.4
COCCSc1nc2c([nH]c3ccccc32)c(=O)n1-c1ccc(OC)c(OC)c1	0.51	.
c1ccc2c(c1)OCC(c1nn3c(C4COc5ccccc5O4)nnc3s1)O2 (stereo not drawn)	2.2	1.1
O=C(CSc1nc2sc3c(c2c(=O)[nH]1)CCCC3)N1CCOCC1	.	-1.6
CC1CC(C)CN(C(=O)Cn2c(-c3nonc3N)nc3ccccc32)C1 (stereo not drawn)	.	-0.68
COc1ccc(C2C3=C(CC(C)(C)CC3=O)Nc3n[nH]c(-c4ccc(C)cc4)c32)cc1 (stereo not drawn)	0.24	0.37
c1ccc(-c2cc(N3CCOCC3)nn2-c2ccccc2)cc1	3.2	-2.3
O=C(Cn1ncc2ccc(Cl)cc21)N1CCc2ccccc2C1	0.07	-1.2
Cc1cc(C)c(C(=O)CC2(O)C(=O)Nc3ccc(Cl)cc32)c(C)c1 (stereo not drawn)	0.05	-0.49
C=CCSc1nc(-c2ccccc2)nc2c1CCCC2	.	-0.64
COc1cc(OC)c(N2C(=O)c3ccncc3C2=O)cc1Cl	0.47	.
CCCc1nnc(NC(=O)c2nc(SC)ncc2Cl)s1	3	-0.86
COc1ccc(OC)c(C2=NS(=O)(=O)N(C)C(C(=O)NC(C)(C)CO)=C2)c1	2.9	-0.93
CCCn1c2ccccc2c2cnn(CC(=O)NC3CCC(C)CC3)c(=O)c21 (stereo not drawn)	1.2	.
Cc1noc(-c2ccco2)c1NC(=O)NN(C)C	.	-0.84
CCC(CC)C(=O)N(c1ccc(C(C)C)cc1)C1C=CS(=O)(=O)C1 (stereo not drawn)	-0.26	-0.51
Cc1ccc2oc(-c3ccc(Cl)c(N)c3)nc2c1	0.46	-5.8
CCCCC1C(=O)N(c2ccccc2)N(c2ccc(O)cc2)C1=O (stereo not drawn)	1.3	.
OCCNc1ncnc2oc(-c3ccccc3)c(-c3ccccc3)c12	.	-0.71
Cc1nc2n(CC(=O)N3CCCC3)c3ccccc3n2n1	1.6	0.27
COC(=O)C1=C(C(=O)OC)SC(=C2C(=S)C(C)(C)Nc3ccc(OC)cc32)S1	1.3	-6.5
CC(Oc1cccc2cccnc12)C(=O)O (stereo not drawn)	0.62	1.1
CCOC(=O)C1CCN(c2cc(NCCCN(C)C)c3c4c(onc24)-c2ccccc2C3=O)CC1	1.1	-1.8
Cc1ccc(OCCn2cc(/C=c3\sc4nc5ccccc5n4c3=O)c3ccccc32)cc1	.	-4.2
Cc1ccc(Oc2ncccc2[N+](=O)[O-])c([N+](=O)[O-])n1	.	-1.4
Cc1ccc(N2CCN(S(=O)(=O)c3c(C)nc4scc(C)n4c3=O)CC2)c(C)c1	0.57	-2.1
CCCCC(=O)Nc1nc2ccccc2s1	0.32	0.49
CC(C)(C)c1ccc(C2/C(=C(\O)c3ccccc3)C(=O)C(=O)N2c2nncs2)cc1 (stereo not drawn)	.	-1.6
CCOC(=O)c1cc2nc3sccn3c2s1	.	-1.6
O=C(COc1ccc(F)cc1)N1CCN(c2ncnc3c2nnn3-c2ccc(F)cc2)CC1	2	.
CN(C)CCNC(=O)c1ccc2c(c1)nc1n2CCOC1	1.2	.
c1ccc(Cc2nc3c4cnn(Cc5ccccc5)c4ncn3n2)cc1	1.6	-0.9
Cc1ccc(C(O)(c2ccc(F)cc2)C(CN2CCOCC2)c2ccccc2)cc1 (stereo not drawn)	0.57	-0.2
NC(=O)C1CCN(C(=O)CCC2Nc3c4ccccc4nc(=S)n3C2=O)CC1 (stereo not drawn)	.	-1.2
O=C(NC1CCCC1)C1CCN(c2nc3ccccc3n3cccc23)CC1	-2	.
CNC(=O)c1c(NC(=O)c2nn(-c3ccc(Cl)cc3)ccc2=O)sc2c1CCCC2	0.24	-1.4
Nc1nc(Cc2cc3ccccc3[nH]2)nc(NC2CCCCC2)n1	0.18	0.9
CC1Sc2ccc(S(=O)(=O)N3CCN(c4ccc(Cl)cc4)CC3)cc2NC1=O (stereo not drawn)	1.7	.
Cc1cc(NC(=O)C(C)C)cc(-c2nc3cc(Cl)ccc3o2)c1O	1	-1.2
Cc1ccc(S(=O)(=O)c2nnn3c2nc(NCC2CCCO2)c2ccccc23)cc1 (stereo not drawn)	0.45	-1.1
COc1ccc(NS(=O)(=O)c2cc(/C=C/c3onc(C)c3[N+](=O)[O-])ccc2C)cc1	0.77	.

Entries of single compounds, looked up by structure. Order of screens: TAR Tat displ	CDC25B CDK2 inh
Cc1ccc2oc(-c3ccc(Cl)c(N)c3)nc2c1 across the screens: 0.46	-5.8
Cn1c(Cc2nn(C)c(=O)c3ccccc23)nnc1SCC(=O)Nc1ccc(Cl)cc1Cl across the screens: .	-1.9
CCC(CC)C(=O)N(c1ccc(C(C)C)cc1)C1C=CS(=O)(=O)C1 (stereo not drawn) across the screens: -0.26	-0.51
c1ccc2c(c1)OCC(c1nn3c(C4COc5ccccc5O4)nnc3s1)O2 (stereo not drawn) across the screens: 2.2	1.1

The listing picks up, starting two compounds before the break.
SMILES	TAR Tat displ	CDC25B CDK2 inh
Cc1ccc(S(=O)(=O)c2nnn3c2nc(NCC2CCCO2)c2ccccc23)cc1 (stereo not drawn)	0.45	-1.1
COc1ccc(NS(=O)(=O)c2cc(/C=C/c3onc(C)c3[N+](=O)[O-])ccc2C)cc1	0.77	.
CCCc1c(C)nc2ncnn2c1Sc1ccc(N)cc1	1.7	.
FC(F)(F)c1ccc(-c2nnc(-c3cccs3)o2)cc1	.	-2
CCSc1nsc(NC(=O)Nc2cc(C)cc(C)c2)n1	-0.32	-0.65
Fc1ccc(-c2nn3c(C(F)(F)F)nnc3s2)cc1	0.29	-0.93
CC1CCCC(NC(=O)c2cc3c(s2)-c2ccccc2OC3)C1C (stereo not drawn)	2.8	-0.62
Cc1ccc(-c2ccc3nnc(C)n3n2)cc1S(=O)(=O)Nc1ccc(Cl)cc1	0.01	.
O=C(Nc1cccc(C(=O)NC2CC2)c1)C1=CSCCO1	0.51	.
O=C(O)CC1(CC(=O)Nc2ccccc2-n2cccn2)CCCCC1	.	-0.06
CCOc1ccccc1N1CCN(C2CC(=O)N(c3ccccc3)C2=O)CC1 (stereo not drawn)	.	0.43
Cc1cc2nc(CSc3nnc(NC(=O)c4cccc(F)c4)s3)cc(=O)n2o1	1.6	.
COC(=O)C1=C(C)NC(=O)C1CC(=O)O (stereo not drawn)	.	0.08
CC1N=C2c3ccccc3N=C(SCC(=O)Nc3cccc(Cl)c3)N2C1=O (stereo not drawn)	1.3	.
COc1ccc(OC)c(C2=NOC(C(=O)Nc3ccc(F)cc3F)C2)c1 (stereo not drawn)	1.8	2.2
CCOc1cccc(/C=N/NC(=O)c2cc(-c3cccc4ccccc34)n[nH]2)c1O	.	-3
